# Screens from PubChem BioAssay.
# VDR inhibitor – vitamin D3 receptor (human) inhibition. P11473. VDR-SRC2-3 peptide fluorescence polarization, 2 h. Potency, µM, for the others: max response, negative = inhibition, actives largely listed as inhibitors. 400,000 tested, 0.93% active; active = well fitted inhibition curve with a large enough effect; inconclusive = small, poorly fitted or top-dose-only effect, or another doubt; inactive = no such curve, though single readings can be large or run the other way; note: series mostly up to about 120 µM
# Target sequence (P11473 whole entry, looked up): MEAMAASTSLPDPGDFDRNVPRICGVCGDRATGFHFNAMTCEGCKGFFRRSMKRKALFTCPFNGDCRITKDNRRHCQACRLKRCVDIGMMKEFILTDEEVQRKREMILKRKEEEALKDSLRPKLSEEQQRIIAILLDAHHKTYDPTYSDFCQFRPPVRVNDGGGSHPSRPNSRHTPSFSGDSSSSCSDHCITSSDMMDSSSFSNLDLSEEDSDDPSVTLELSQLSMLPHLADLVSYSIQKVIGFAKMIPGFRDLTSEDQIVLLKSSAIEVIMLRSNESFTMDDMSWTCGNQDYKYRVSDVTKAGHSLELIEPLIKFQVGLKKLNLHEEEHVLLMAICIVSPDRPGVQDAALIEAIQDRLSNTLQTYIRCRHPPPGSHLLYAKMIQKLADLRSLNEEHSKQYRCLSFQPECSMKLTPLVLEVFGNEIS
#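 Signal is fluorescence polarization, reporting how far test compounds block the interaction of VDR with the SRC2-3 coregulator peptide after a 2 h room-temperature incubation.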
# * = called active by the depositor; ? = inconclusive; & = joins results of further samples; [ ] = another dose, or the depositor's remark. % is set by controls: 0 for no effect and ±100 for the full control effect; potency is the fitted concentration of half-maximal effect.
SMILES,VDR inhibitor
CC(C)NC(=O)C1CCN(C(=O)C(C(=O)c2ccccc2)n2cc(Cl)ccc2=O)CC1 (centres undefined),0%
COc1ccc(CN(C)C(=O)c2[nH]c(C)c(C(C)=O)c2C)c(OC)c1OC,4%
Cc1ccc(C)c(CSc2nnc(C)c(=O)[nH]2)c1,4%
O=C(CCCCCn1c(=O)[nH]c2ccccc2c1=O)N1CCN(c2ccc(Cl)cc2)CC1,-5%
CN1CCN(C(=O)C2CCC(CNS(=O)(=O)c3cccc4cccnc34)CC2)CC1 (centres undefined),-4%
Cc1cccc(C(=O)O/N=C(\N)CS(=O)(=O)c2ccccc2)c1,14%
COC(=O)c1sccc1NC(=O)C1C2C=CC(O2)C1C(=O)O (centres undefined),-2%
CC1CCC2(CC1)NC(=O)N(CC(=O)NCc1ccc(F)cc1)C2=O (centres undefined),4%
CSc1nc2ccccc2n1Cc1c(Cl)cccc1Cl,4%
C#CCNc1nc(C)nc2c1nnn2Cc1ccccc1F,-5%
COc1ccc(NC(=O)CCNS(=O)(=O)c2cccc3nonc23)cc1,3%&-17%
CCOc1ccc2[nH]cc(S(=O)(=O)c3ccc(Cl)cc3)c(=O)c2c1,-10%
C#CCOCCOCCOCCNc1nc(N2CCN(C(=O)[C@H](Cc3cc4ccccc4[nH]3)n3cc([C@@H](N)Cc4ccc(O)cc4)nn3)CC2)nc(N2CCN(C(=O)[C@H](Cc3cc4ccccc4[nH]3)n3cc([C@@H](N)CC(C)C)nn3)CC2)n1,38%[activator]
COc1ccc(CCn2c3c(c(=O)[nH]c2=S)CN(c2ccccc2)CN3)cc1OC,-5%
CCOc1ccc(N(CC(=O)NCc2cccc(OC)c2)S(=O)(=O)c2c(C)noc2C)cc1,-4%
CCCN(CCC)CCNC(=O)C1c2ccccc2C(=O)N(CCOC)C1c1ccc(F)cc1 (centres undefined),-5%
Cc1ccc(-n2ncc(C(=O)N3CCN(C4CCCCC4)CC3)c2C2CCN(C(=O)OC(C)(C)C)CC2)cc1,14%
COc1ccc(OCC(O)Cn2c(=N)n(CCN3CCOCC3)c3ccccc32)cc1 (centres undefined),-24%
COc1ccc(CN2C(=O)c3cccnc3C2O)cc1 (centres undefined),-9%
O=C(COc1ccc(S(=O)(=O)N2CCCC2)cc1)N1CCN(c2ccccc2F)CC1,2%
COc1ccc(/C=N/NC(=O)c2cccc(NC(=O)c3ccc(F)cc3)c2)c(C(=O)O)c1OC,-10%
Cn1cccc1C(NC(=O)c1ccccc1)C(Cl)(Cl)Cl (centres undefined),-9%
Cc1ccc(CNC(=O)c2ccc(N3CCC4(CC3)CC(c3cccc(Br)c3)=NO4)c(NC(=O)c3ccco3)c2)cc1,-3%
Cc1ccc(NC(=O)CSCC(=O)N2CCOCC2)cc1,11%
Cc1cc(=O)nc2c3ccccc3n(CC(=O)NC(C)c3ccc4c(c3)OCCO4)n12 (centres undefined),-3%
Cc1ccc(-c2cnn(-c3cccc(C(F)(F)F)c3)c2N)cc1,-2%
Cc1cccc(C2NC(=O)c3c(sc4c3CCN(C)C4)N2)c1O (centres undefined),-9%
Cc1nnc(NC(=O)c2ccc(S(=O)(=O)N3CC(C)CC(C)C3)cc2)o1 (centres undefined),1%
C/C(Cc1ccccc1)=N\NC(=O)CNC(=O)c1ccccc1O,-1%
Cc1cc(C)n2nc(C(=O)OCC(=O)NNC(=O)c3ccc(Cl)cc3)nc2n1,-4%
CC1CCc2sc(C(=O)NC3CCCCC3)cc2C1 (centres undefined),-19%
COCCCn1c(SCC(=O)N2CCc3ccccc32)nnc1-c1ccoc1C,-10%
COC(=O)c1ccc(C23CC4(C2)[C@H](CN(Cc2ccc(C(F)(F)F)cc2)[C@@H]4c2ccccc2)C3c2ccc(Cl)nc2)cc1 (some centres undefined),-2%
CCCN(C(=O)c1cc(S(=O)(=O)N2CCCCCC2)ccc1OC)C1CCS(=O)(=O)C1 (centres undefined),-3%
Cc1nnc(-c2ccco2)c2cn(-c3cccc(Br)c3)nc12,-5%
O=C(NCCN1CCN(c2ccccc2)CC1)c1cccn2c(=O)c3ccccc3nc12,3%
CC1(C)Cc2c(c(N3CCOCC3)nc3sc4c(NCC5CCCO5)nnnc4c23)CS1 (centres undefined),-4%
CC(C)Oc1ccc(S(=O)(=O)N2CCOCC2)cc1NC(=O)c1nn(C)c(=O)c2ccccc12,8%
Cc1ccc(S(=O)(=O)CCC(=O)NCc2ccccc2Cl)cc1,3%
CCOc1ccc2oc(C(=O)Nc3nccs3)c(C)c2c1,5%
Cc1ccc(/C=C/C(=O)Nc2nc(-c3cccs3)ns2)cc1,-1%
CCO[C@H]1OC(C(=O)O)=C[C@@H](c2ccc3c(c2)OCO3)[C@@H]1CCCO,3%
COC(=O)Cc1c(C)c2cc3c(c(C)c2oc1=O)OCN(CCc1ccc(F)cc1)C3,6%
COc1ccccc1NC(=O)c1ccccc1C(=O)Nc1ccccc1OC,-11%
CN(C)S(=O)(=O)c1cccc(NC(=O)COC(=O)/C=C/c2ccco2)c1,?

# Looked up above.
# For VDR inhibitor, CCOc1ccc2oc(C(=O)Nc3nccs3)c(C)c2c1 is listed with 5%
# For VDR inhibitor, CC1(C)Cc2c(c(N3CCOCC3)nc3sc4c(NCC5CCCO5)nnnc4c23)CS1 (centres undefined) is listed with -4%
# For VDR inhibitor, Cc1ccc(/C=C/C(=O)Nc2nc(-c3cccs3)ns2)cc1 is listed with -1%
# For VDR inhibitor, CC1CCc2sc(C(=O)NC3CCCCC3)cc2C1 (centres undefined) is listed with -19%
# For VDR inhibitor, Cc1ccc(S(=O)(=O)CCC(=O)NCc2ccccc2Cl)cc1 is listed with 3%

# Other results follow.
SMILES,VDR inhibitor
Cc1ccccc1OCC(=O)NCC(=O)OCc1cccc2ccccc12,-9%
O=C(c1cc(S(=O)(=O)N2CCCC2)c[nH]1)N1CCN(c2cccc(Cl)c2)CC1,6%
COc1ccc(OC)c2c1sc(=NC(=O)c1cccc(N3C(=O)CCC3=O)c1)n2C,-5%
COc1cccc(-c2nc(N)nc(SC)c2C#N)c1,7%
Cc1cccc(C(=O)NC(C(=O)Nc2cccc(S(=O)(=O)N3CCCC3)c2)C(C)C)c1 (centres undefined),-7%
COc1cc(C(=O)COC(=O)c2ccco2)cc(OC)c1OC,-12%
O=C(NNC(=O)c1ccccc1Br)c1ccncc1,21%
COc1ccccc1N(CC(=O)NCC1CCCO1)C(=O)Cn1nnc(-c2cccs2)n1 (centres undefined),6%
COc1ccc(/C=C/C(=O)OCC(=O)Nc2ccc3c(c2)OCO3)cc1,1%
CCNc1nc(NCC)n2c(SCC(=O)Nc3cccc(Cl)c3)nnc2n1,-7%
O=C1COc2ccc(S(=O)(=O)N3CCc4ccccc43)cc2N1,-22%
COc1cccc([C@@H]2Oc3ccc(Br)cc3C(=O)[C@H]2OC(=O)NCCOc2ccccc2)c1,-3%
CCOc1ccc(C(CC(=O)O)NS(=O)(=O)c2ccc(C)cc2)cc1OC (centres undefined),-7%
O=[N+]([O-])CC(=Nc1ccc(Cl)cc1)N/N=C\c1oc(O)c2ccccc12,?
COc1ccc(C(=O)OC(C)C(=O)NC(C)CCc2ccccc2)cc1[N+](=O)[O-] (centres undefined),0%

# Structural class, those above with bromine (four)
SMILES,VDR inhibitor
Cc1ccc(CNC(=O)c2ccc(N3CCC4(CC3)CC(c3cccc(Br)c3)=NO4)c(NC(=O)c3ccco3)c2)cc1,-3%
Cc1nnc(-c2ccco2)c2cn(-c3cccc(Br)c3)nc12,-5%
O=C(NNC(=O)c1ccccc1Br)c1ccncc1,21%
COc1cccc([C@@H]2Oc3ccc(Br)cc3C(=O)[C@H]2OC(=O)NCCOc2ccccc2)c1,-3%

# Next compounds follow.
SMILES,VDR inhibitor
Nc1c(Cl)c(Cl)nc(C(=O)N/N=C/c2ccco2)c1Cl,-16%
CCOc1ccccc1CNC(=O)c1c(C)oc2ncnc(N3CCOCC3)c12,-1%
COc1cc(SC)ccc1C(=O)Nc1ccc(C)cc1C,7%
CC(C)c1nnc(NC(=O)c2ccc3ccccc3c2)s1,-5%
CCC1Oc2ccc(C)cc2N(CC(=O)N(Cc2ccc(C)o2)C2CC(C)(C)NC(C)(C)C2)C1=O (centres undefined),12%
Cc1csc2nc(CNS(=O)(=O)c3cccnc3)cn12,-15%
COc1ccc(-n2c(SCC#N)nc3ccccc3c2=O)cc1,-3%
CN(Cc1c(F)cccc1Cl)C(=O)c1ccc(NC(=O)CC2SC(N3CCCC3)=NC2=O)cc1 (centres undefined),-5%
CCOc1ccc(N2C(=O)CC(N3CCN(c4ccc([N+](=O)[O-])cc4)CC3)C2=O)cc1 (centres undefined),7%
COc1ccc(NC(NC(=O)c2ccc(OC)cc2)C(Cl)(Cl)Cl)cc1 (centres undefined),-27%
C#CCOCCOCCOCCNc1nc(N2CCN(C(=O)[C@H]([C@@H](C)CC)n3cc(CCC(=O)O)nn3)CC2)nc(N2CCN(C(=O)[C@H](CCCCN)n3cc(CCC(=O)O)nn3)CC2)n1,-8%
Cc1ccc(C)c(-n2ccnc2SCC(N)=O)c1,-20%
Cc1cc(C(=O)OCC(=O)Nc2c(Cl)cccc2Cl)c(C)o1,1%
CC1(C)CC(=O)C(C=NCC2CCNCC2)=C(O)C1,7%
Cc1cc(C)cc(NS(=O)(=O)c2ccc3[nH]cc(C(=O)NCc4ccccc4Cl)c(=O)c3c2)c1,7%

# Exported field by field: part of the list above
CCCN(CCC)CCNC(=O)C1c2ccccc2C(=O)N(CCOC)C1c1ccc(F)cc1 (centres undefined)
  VDR inhibitor = -5%
O=C(NCCN1CCN(c2ccccc2)CC1)c1cccn2c(=O)c3ccccc3nc12
  VDR inhibitor = 3%

# The main list resumes; the five compounds before the break are reprinted first.
SMILES,VDR inhibitor
C#CCOCCOCCOCCNc1nc(N2CCN(C(=O)[C@H]([C@@H](C)CC)n3cc(CCC(=O)O)nn3)CC2)nc(N2CCN(C(=O)[C@H](CCCCN)n3cc(CCC(=O)O)nn3)CC2)n1,-8%
Cc1ccc(C)c(-n2ccnc2SCC(N)=O)c1,-20%
Cc1cc(C(=O)OCC(=O)Nc2c(Cl)cccc2Cl)c(C)o1,1%
CC1(C)CC(=O)C(C=NCC2CCNCC2)=C(O)C1,7%
Cc1cc(C)cc(NS(=O)(=O)c2ccc3[nH]cc(C(=O)NCc4ccccc4Cl)c(=O)c3c2)c1,7%
CCOC(=O)CCCc1sc(N)nc1-c1[nH]c(=O)[nH]c1C,-8%
CCOC(=O)c1ccc(-n2cc(C(=O)c3cccnc3)nn2)cc1,-10%
COc1cccc(CC2(CO)CCCN(Cc3ccccc3Cl)C2)c1 (centres undefined),-14%
CCN(C(=O)Cn1c(=O)oc2cc(S(=O)(=O)N3CCCCCC3)ccc21)c1cccc(C)c1,12%
Oc1ccccc1/C=N/n1cnnc1,8%
COc1cccc(/C=N/Nc2nn3cnnc3c3ccccc23)c1,-7%
Clc1ccc(-c2cn(-c3ccc(Cl)cc3)c3[n+]2CCCCC3)cc1,10%
Cc1cc(Nc2ccccc2)n(-c2ccc(Br)cc2)n1,-1%
Cc1ccc(C)c(OCC(=O)N2CCN(c3ncccn3)CC2)c1,-10%
NC(=O)c1ccc(NC(=O)CNc2cc(S(=O)(=O)N3CCOCC3)ccc2N2CCCC2)cc1,30%[activator]
Cc1ccc(C(C(=O)NCCc2ccccc2)N(C(=O)c2csnn2)C2CC2)o1 (centres undefined),4%
COc1cccc(NC(=S)N2CCCC2c2ccc(OC)c(OC)c2)c1 (centres undefined),9%
CCOC(=O)Cc1csc(NC(=O)NC2(C(F)(F)F)Oc3ccc(Cl)cc3O2)n1 (centres undefined),?
O=C(COc1ccc(-c2ccccc2)cc1)NNC(=O)Nc1ccc(F)cc1F,7%
COC(=O)c1ccc(CSc2nnc(-c3ccc4c(c3)OCO4)n2-c2ccccc2)o1,-11%
CC(=O)OC1CC[C@@]2(C)C3CC[C@@]4(C)C(CC5O[C@@]6(CCC(C)CO6)C(C)C54)C3CC[C@@H]2C1 (some centres undefined),-5%
Cc1ccc(C)c(S(=O)(=O)Nc2ccc(S(=O)(=O)Nc3ncccn3)cc2)c1,-8%
FC(F)(F)c1cnc(Sc2nnc(-c3cccs3)n2CC2CCCO2)c(Cl)c1 (centres undefined),-8%
c1cncc(CNc2nc(-c3ccc4c(c3)OCO4)nc3ccccc23)c1,-16%
COc1cc(OC)cc(C(=O)NCC(=O)OCC(=O)c2ccc3c(c2)-c2ccccc2C3)c1,10%
CCOc1ccc(N(CC(=O)NCC2CCCO2)S(=O)(=O)c2ccc(OC)c(OC)c2)cc1 (centres undefined),11%
O=C(CCl)N(c1ccc(Cl)cc1)c1c[nH]c2ccccc12,?
CCOc1ccccc1NC(=O)c1nnn(CC(=O)Nc2ccccc2CC)c1N,-23%
Cn1cc(Cl)c(-c2n[nH]c(=S)n2-c2ccc(F)cc2)n1,-10%
CCCN(Cc1cccs1)C(=O)Nc1ccc(Br)cc1F,-6%
C=CCc1cc(/C=N\NC(=O)CSc2nnc(CCCc3ccc(OC)c(C)c3)o2)cc(OC)c1O,6%
COc1ccc2cc(C(=O)N3CCN(C)CC3)[nH]c2c1,27%
COc1ccc(-n2nnc3c(SCC(=O)NCc4ccco4)ncnc32)cc1,23%
Cc1nc2ccccc2c(=O)n1CC(=O)N1CCOCC1,-12%
O=C(NCCN1CCN(Cc2ccccc2Cl)CC1)Nc1ccccc1,4%
O=C(N/N=C/c1sc(=O)[nH]c1-[n+]1ccccc1)c1ccccc1[O-],-28%
C/C(=N\NC(=O)c1ccc(O)cc1)c1cccc(NC(=O)c2ccc(Cl)cc2)c1,8%
CCOc1ccc(Nc2nc(Cc3nnc(SCC(=O)N(CC)CC)n3C)cs2)cc1,-11%
CCOC(=O)C1=NN(C(C)=O)C2C(=O)N(CC)C(=O)C12 (centres undefined),-3%
Cc1ccc(C(=O)NN=C2CCCCCC2)s1,4%
COc1ccc(N2CCN(c3nc(NCCO)nc(N4CCOCC4)n3)CC2)cc1,5%
O/N=C1/CCCCc2sccc21,-2%
Cc1cc(C)n(CCNS(=O)(=O)c2ccc(C)c(C)c2)n1,14%
Cc1cccn2c(=O)c3cc(C#N)c(=N)n(CCN4CCOCC4)c3nc12,-13%

# Some of the compounds tested; rates above refer to the full screens.
